Assay outcomes (PubChem BioAssay)
GIV-Gai inh = blocks GIV peptide binding to rat Galpha-i3. P08753. Galpha-i3/FITC-GIV peptide fluorescence polarization, 90 min; active compounds read low; scaled: aluminum fluoride 0%, vehicle 100%. percent of control (FP), % (no concentration beside the values). actives 0.42% (n = 210,000);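 active = replicate mean at 85% of control or lower, very high polarization wells dropped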;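 also: wells of about 15 µL received 100 nL stock; the first replicate is given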
Target sequence (P08753 whole entry, looked up): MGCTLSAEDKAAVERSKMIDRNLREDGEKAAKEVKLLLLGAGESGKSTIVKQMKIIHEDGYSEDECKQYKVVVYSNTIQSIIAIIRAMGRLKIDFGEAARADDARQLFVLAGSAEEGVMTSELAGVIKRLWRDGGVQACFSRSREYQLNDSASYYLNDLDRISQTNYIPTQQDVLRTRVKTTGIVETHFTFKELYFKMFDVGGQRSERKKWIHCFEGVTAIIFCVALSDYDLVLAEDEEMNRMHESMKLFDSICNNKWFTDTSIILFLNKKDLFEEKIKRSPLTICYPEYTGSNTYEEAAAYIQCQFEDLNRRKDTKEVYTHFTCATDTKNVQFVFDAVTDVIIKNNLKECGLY
HCMV UL50-53 inh = disrupts HCMV UL50-UL53 complex binding; HTRF UL50-UL53 interaction, normalized percent inhibition; inhibition, % (no concentration beside the values); actives 0.15% (n = 190,000); AID 1918969;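 active = both replicates at 50% or more, plus weaker picks with an unusually low signal ratio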;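 also: stock transfer was 100 nL into about 20 µL; 0% = negative control wells and 100% = wells with untagged competitor protein; inactives centre near -12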
Sa growth inh = blocks Staphylococcus aureus growth | S. aureus RN4220 growth, OD600, 20 h, 42 °C; active compounds read low | relative growth, % (no concentration beside the values) | actives 0.53% (n = 170,000) | AID 720641;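 active = growth at 42 °C up to 50% and 20 or more points under that at 30 °C, or under 10% at both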;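 also: 300 nL library stock went into each well; scaled to the means of positive and negative controls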
Sa growth inh second temp = recorded beside Sa growth inh, whose call it bears; relative growth, %; measured here: growth at 30 °C;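 optical density after 20 h as mean of two plates; 100% = untreated growth and lower means inhibition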
An asterisk follows results filed as active; . = not tested or not shown; & = joins results of further samples.

item | SMILES | Sa growth inh | GIV-Gai inh | Sa growth inh second temp | HCMV UL50-53 inh
1 | Cc1c(-c2nsc(NC(=O)c3cccs3)n2)nnn1-c1ccc(F)cc1 | 96.6 | 104.0 | 81.8 | .
2 | Cc1cc(Nc2ccccc2F)n2nc(Cc3ccc(Cl)cc3)nc2n1 | 107.1 | 103.6 | 84.6 | -24.0
3 | O=C(OC/C(=N\O)c1ccccc1)c1ccc(Br)cc1 | 77.1 | 101.9 | 66.9 | -3.8
4 | Cc1c(CNCCc2ccc(S(N)(=O)=O)cc2)c(C(=O)O)c(C)n1Cc1ccc(F)cc1 | . | 98.6 | . | -16.5
5 | CCn1c(=O)c(C(=O)Nc2ccc3c(c2)OCO3)c(O)c2ccccc21 | . | 107.5 | . | -23.2
6 | O=c1c2sccc2n(Cc2cc(=O)n3cc(Cl)ccc3n2)c(=O)n1-c1ccccc1 | 107.0 | 110.4 | 91.4 | -53.3
7 | CCC(=O)NS(=O)(=O)c1ccc(-c2c(-c3ccccc3)noc2C)cc1 | 87.8 | . | 77.1 | -83.3
8 | COc1ccc(N(C(=O)c2ccc(OC)c(OC)c2)S(=O)(=O)c2ccc(Cl)cc2)cc1 | 106.7 | 101.7 | 86.2 | -17.8
9 | COc1ccc(Cl)cc1C(=O)Nc1ccc(C(=O)Nc2cccc(-c3nc4ccccc4o3)c2)cc1 | . | 105.0 | . | 4.3
10 | COc1ccc2cc(/C(C)=N/n3c(=S)[nH][nH]c3=S)ccc2c1 | 110.7 | . | 96.3 | -25.4
11 | c1ccc(C2CC(c3ccco3)n3ncnc3N2)cc1 (configuration not stated) | 116.9 | 98.6 | 81.7 | .
12 | Cc1ccn2cc(CCNC(=O)CC(C)(C)C)nc2c1 | 93.7 | 102.3 | 91.5 | .
13 | COc1cc2c(cc1OC)C(Cc1ccccc1Br)=NC(C)(C)C2 | . | 114.5&101.0 | . | -27.5
14 | CC(C)N(Cc1ccccc1)C(=O)Cc1noc2ccccc12 | 90.5 | 98.0 | 83.0 | .
15 | COc1cc2ccccc2cc1C(=O)Nc1cccc(-c2nc3ccccc3o2)c1 | 82.0 | 101.5 | 69.8 | -22.7
16 | N#Cc1ccccc1NC(=O)Nc1cc(-c2cccs2)nn1-c1ccc(I)cc1 | 103.4 | 107.5 | 82.9 | -23.8
17 | CC(C)(C)c1ccc(C(=O)NCCc2nc(-c3ccccc3)no2)cc1 | . | 112.0 | . | -2.1
18 | Cc1ccc(C)c(N2CCN(C(=O)c3[nH]c(C)c(S(=O)(=O)N4CCOCC4)c3C)CC2)c1 | . | 107.8 | . | -19.2
19 | CCOC(=O)CSc1nc2ccccc2c(=O)n1-c1cccc(C)c1 | 93.5 | 101.3 | 79.7 | -17.2
20 | CNC(=O)c1ccc2c(c1)CCN2S(C)(=O)=O | 91.6 | 102.7&102.6 | 83.9 | -18.3&3.5
21 | O=C(NC(=S)Nc1ncccn1)c1ccc(F)cc1 | 88.3 | . | 97.4 | -7.5
22 | O=c1oc2ccc(Br)cc2cc1-c1csc(Nc2cccc(C(F)(F)F)c2)n1 | . | 97.5 | . | -9.8
23 | O=C1CNC(=S)N1CCc1ccccc1 | 92.2 | 107.3 | 92.3 | 3.7
24 | O=C(Nc1ccc(Cl)c(-c2nc3cc(Cl)ccc3o2)c1)c1cc([N+](=O)[O-])ccc1N1CCOCC1 | 96.3 | 120.5 | 102.5 | -7.5
25 | CCn1nnc2c(N3CCC(O)CC3)ncnc21 | 88.1 | 103.6&103.6 | 83.9 | -31.5
26 | Cc1cc2c(cc1S(=O)(=O)CCC(=O)N(C)C1CCCCC1)OCC(=O)N2 | 109.5 | 102.3 | 96.1 | .
27 | Cc1cc(C)c2c(CC(=O)Nc3ccccc3C(F)(F)F)coc2c1 | 104.2 | 107.6 | 90.3 | -5.8
28 | CNc1ccc(Cl)nn1 | 105.4 | 101.1 | 80.3 | -18.4
29 | Cc1cc2c3c(C)n(Cc4ccccc4)c(C)c3c(C)nn2c1 | 110.9 | 105.1 | 64.8 | .
30 | Cc1n[nH]c(C)c1CC(=O)Nc1ccccc1F | . | 107.4 | . | 4.4
31 | CC(=O)Nc1ccc(NC(=O)C(Cc2ccccc2)NS(=O)(=O)c2ccc3c(c2)oc(=O)n3C)cc1 (configuration not stated) | 102.7 | 97.8 | 85.1 | -22.2
32 | O=C(Nc1cccc(-c2nc3cc(Cl)ccc3o2)c1)c1cc([N+](=O)[O-])ccc1N1CCOCC1 | 111.9 | 112.7 | 86.9 | -14.1
33 | O=C(NCc1cccc(Cl)c1)c1ccc(COc2ccc(Cl)cc2)o1 | 101.7 | . | 94.6 | 2.9
34 | N#Cc1c(N)nc2c(c1-c1ccccc1)CCCC2 | 79.5 | 107.3 | 106.0 | -9.2
35 | COc1ccc(OCCn2c(=O)n(CCOc3ccc(OC)cc3)n(-c3ccccc3)c2=O)cc1 | 122.5 | . | 105.5 | -15.6
36 | Clc1ccc2oc(-c3ccccc3)c/c(=N\c3nccs3)c2c1 | 108.8 | 95.1 | 91.3 | .

7 entries from above in a different format.
36	Clc1ccc2oc(-c3ccccc3)c/c(=N\c3nccs3)c2c1
31	CC(=O)Nc1ccc(NC(=O)C(Cc2ccccc2)NS(=O)(=O)c2ccc3c(c2)oc(=O)n3C)cc1 (configuration not stated)
26	Cc1cc2c(cc1S(=O)(=O)CCC(=O)N(C)C1CCCCC1)OCC(=O)N2
28	CNc1ccc(Cl)nn1
27	Cc1cc(C)c2c(CC(=O)Nc3ccccc3C(F)(F)F)coc2c1
25	CCn1nnc2c(N3CCC(O)CC3)ncnc21
29	Cc1cc2c3c(C)n(Cc4ccccc4)c(C)c3c(C)nn2c1

screen / no. | 36 | 31 | 26 | 28 | 27 | 25 | 29
Sa growth inh | 108.8 | 102.7 | 109.5 | 105.4 | 104.2 | 88.1 | 110.9
GIV-Gai inh | 95.1 | 97.8 | 102.3 | 101.1 | 107.6 | 103.6&103.6 | 105.1
Sa growth inh second temp | 91.3 | 85.1 | 96.1 | 80.3 | 90.3 | 83.9 | 64.8
HCMV UL50-53 inh | . | -22.2 | . | -18.4 | -5.8 | -31.5 | .

(continued)
item | SMILES | Sa growth inh | GIV-Gai inh | Sa growth inh second temp | HCMV UL50-53 inh
37 | COC(=O)C1=C(C)NC(=O)N(C(C)=O)C1c1ccc(OC)cc1 (configuration not stated) | 97.7 | 105.0 | 91.2 | -13.4
38 | COc1ccccc1C1(O)CCN(Cc2ccccc2)CC1 | 120.4 | 102.5 | 92.9 | 6.6
39 | COc1ccc(C2c3cccn3-c3sc4c(c3CN2C(=O)Nc2ccc3c(c2)OCO3)CCN(C)C4)cc1 (configuration not stated) | . | 109.9 | . | -12.5
40 | COc1cc(-c2nc3ccc(Cl)cn3c2Nc2ccc3c(c2)OCO3)ccc1O | 100.2 | 101.4 | 86.5 | -25.8
41 | Cc1cc(CS)cs1 | 92.5 | 108.5 | 91.0 | -15.5
42 | CCOc1ccc(NC(=O)C2CCN(C(=O)N3CC(C)Oc4ccc(Cl)cc43)CC2)cc1 (configuration not stated) | 90.7 | 108.3 | 89.3 | 0.9
43 | O=C(O)CCCC1OC(CCCC(=O)O)OC(CCCC(=O)O)O1 (configuration not stated) | 88.0 | 99.0 | 84.7 | -39.8
44 | Cc1ccc(CN2C(=O)NC(c3ccc(F)cc3)C2=O)cc1 (configuration not stated) | 99.7 | . | 94.9 | -11.3
45 | Cn1c(=S)n(CN2CCC3(CC2)OCCO3)c2ccccc21 | 99.3 | . | 87.7 | -32.6
46 | O=C(O)COCC(=O)Nc1nc(SCc2ccc(Cl)cc2)n[nH]1 | 90.0 | 102.4 | 83.3 | -14.8
47 | COc1ccc(S(=O)(=O)Nc2ccc3c(c2)CCCN3S(C)(=O)=O)cc1C | . | 109.3 | . | 2.5
48 | CN(S(=O)(=O)c1ccc2c(c1)OCCO2)S(=O)(=O)c1cccs1 | 86.0 | . | 88.0 | -30.0
49 | C=CCn1c(CSc2nc(N)cc(N)n2)n[nH]c1=S | 105.2 | 104.6 | 99.7 | -6.0
50 | CN(C(=O)CSc1n[nH]c(N)n1)C1CCCCC1 | 83.3 | . | 94.0 | -27.4
51 | CNS(=O)(=O)c1cn(CC(=O)Nc2cccc(C)c2C)cc1S(=O)(=O)NC | . | 107.1 | . | -2.8
52 | CC(C)(C)C(=O)Nc1scc(-c2cccs2)c1C(=O)O | 173.7 | . | 96.6 | -19.5
53 | S=C(NCCSc1ccc(Cl)cc1)Nc1cccc(Cl)c1 | 2.1 | 96.1 | 12.6 | .
54 | COc1ccccc1CNC(=O)CN1N=C(c2ccccc2)CCC1=O | 116.8 | 97.7 | 97.2 | .
55 | CCC(CO)NC(=S)Nc1c(C)cccc1C (configuration not stated) | 90.8 | 102.1 | 84.4 | -33.8
56 | COc1ccc(/C=N/c2ccco2)cc1 | 100.4 | 123.8 | 73.0 | -31.0
57 | CC(=O)N1CCCc2ccc(NS(=O)(=O)CCc3ccccc3)cc21 | . | 141.6 | . | -25.4
58 | COc1ccc(Cl)cc1S(=O)(=O)Nc1ccc(-c2ccc(N3CCCC3)nn2)cc1 | . | 105.1 | . | -43.0
59 | Cc1ccc(-c2nnc(-c3csc(C)n3)o2)cc1 | 84.3 | 104.1 | 85.5 | 2.7
60 | COc1ccc(/C=C(\C#N)S(=O)(=O)c2ccc(Cl)cc2)cc1 | 107.7 | 106.5 | 89.4 | -50.2
61 | CC(=O)c1cccc(Nc2ncnc3c2cnn3-c2cccc(Cl)c2)c1 | 99.9 | 99.9 | 84.3 | .
62 | CCOC(=O)C1=C(N)OC2=C(C(=O)CC(c3ccccc3)C2)C1c1cc(OC)c(OC)c(OC)c1 (configuration not stated) | . | 108.3 | . | -2.3
63 | CCOC(=O)N1CCC(NC(=O)CCc2cn(Cc3ccccc3C)c3ccccc23)CC1 | 92.2 | 98.6 | 85.7 | .
64 | Cc1ccc(N2CCN(C(=O)C(c3ccccc3)c3ccccc3)CC2)cc1C | 93.3 | . | 63.0 | -3.3
65 | CC1Cc2ccccc2N1C(=O)C1CCCO1 (configuration not stated) | 108.0 | 104.1 | 99.1 | -1.4
66 | COc1ccc(CN2C(=O)NC(=O)/C(=C\c3ccc(OC)cc3OC)C2=O)cc1 | . | 106.9 | . | -17.6
67 | COc1ccc(Br)cc1CC1C(=O)Nc2ccccc21 (configuration not stated) | 104.7 | 100.9&105.1 | 86.5 | -5.6&-12.6
68 | COc1ccc(C(=O)OC2CCN(C)CC2)cc1 | 99.2 | . | 87.7 | -10.1
69 | COc1ccc(Cl)cc1N1C(=O)[C@@H]2CCCN2[C@H]1c1ccc(Br)cc1 | . | 98.9 | . | -30.4
70 | c1ccc2c(c1)CC(Nc1ccc3cn[nH]c3c1)C2 | 1.7* | 102.5 | 1.8* | 17.8
71 | O=c1[nH]nc2ccccn12 | 93.1 | . | 96.4 | -20.4
72 | Cc1ccc(CNC(=O)C2CCCN(c3nc4ccccc4n4cccc34)C2)cc1 (configuration not stated) | 82.4 | 103.2 | 88.0 | -4.7
73 | CCOC(=O)C1=C(C)NC(=O)CC1c1ccc(F)cc1 (configuration not stated) | . | 97.5 | . | -13.4
74 | CSc1ccc(-c2nc(CSCC(=O)N(C)Cc3ccccc3)c(C)o2)cc1 | 108.8 | 97.2 | 92.4 | -5.7
75 | CC(C)NC(=O)CSc1cn(CC(=O)N2CCCCCC2)c2ccccc12 | 96.7 | 104.0 | 85.3 | .
76 | Cc1ccc(C)c(Cn2cccc2C2=NC(C)(C)CO2)c1 | 90.1 | 97.3 | 76.2 | -22.2
77 | CSc1scc2c1/C(=N/OC(C)=O)CC(C)(C)C2 | 97.8 | 107.6 | 97.0 | -12.9
78 | O=C(COc1ccccc1)c1nnc(-c2ccc(Cl)cc2)o1 | 77.9 | . | 58.0 | -25.6
79 | N#Cc1ccc(-c2cccs2)nc1SCc1ccncc1 | 111.4 | . | 97.3 | -18.5
80 | Cc1csc(/C(C#N)=N/OC(=O)c2ccco2)n1 | 64.0 | . | 82.3 | -36.4
81 | CCCC(O)c1nc2ccccc2n1CCCOc1cc(C)ccc1C (configuration not stated) | . | 102.5 | . | -17.9
82 | Cc1ccc(CNC(=O)c2sc3nc4n(c(=O)c3c2C)CCCC4)cc1 | 99.5 | 99.3 | 88.5 | -20.8
83 | Cc1ccc(Nc2nnc(-c3ccc(C)c(S(=O)(=O)NCc4nc5ccccc5[nH]4)c3)c3ccccc23)cc1 | 108.5 | 110.8 | 106.4 | -33.0
84 | O=C(O)C(Cc1ccccc1)N1C(=O)CCC1=O (configuration not stated) | 116.5 | . | 88.6 | -16.6
85 | Cc1ccc(CNCCO)o1 | 83.6 | 102.4 | 87.5 | -16.9
86 | OC(CN1CCCC1)Cn1c2ccccc2c2ccccc21 (configuration not stated) | 117.5 | 92.5 | 95.7 | -5.7
87 | C=CCC(O)(CC=C)C1CCCN1 (configuration not stated) | 93.1 | 105.3 | 85.9 | 9.1
88 | COc1cccc(OCc2nnc(SCc3csc(Nc4ccc(C)cc4)n3)n2N)c1 | 92.8 | . | 89.8 | -12.5
89 | C#CCN(C)Cc1ccccc1 | 93.5 | 103.7 | 94.7 | -5.4&-36.1&-36.1&-16.7&-14.7&-18.6
90 | Clc1cc(CN2CCSCC2)c(Cl)s1 | 90.9 | 100.4 | 86.8 | -12.0
91 | N#CCOC(=O)c1ccccc1Sc1ccccc1C#N | 77.5 | . | 87.2 | -6.4
92 | COc1ccccc1OCC(=O)N/N=C1/SCC(=O)N1Cc1ccccc1 | 72.2 | 102.0 | 108.6 | 6.2
